# VACV Venus inh: qHTS for Stage-Specific Inhibitors of Vaccinia Orthopoxvirus: Venus Reporter Primary qHTS; Vaccinia virus Venus reporter expression, fluorescence; Potency, µM (top dose mostly 36.5 µM), for the others: at the highest dose activity change, negative = inhibition, hits mostly inhibitors; 0.46% of 330,000 active; AID 720580, 2013; active means well fitted inhibition curve with a large enough effect; inconclusive means small, poorly fitted or top-dose-only effect; inactive means no such curve, though single readings can be large or run the other way; tested in A549 cells; also: nearly all actives have a fitted effect of over 30% in size; inactives centre near -10
# Vaccinia mCherry: qHTS for Stage-Specific Inhibitors of Vaccinia Orthopoxvirus: mCherry Reporter Primary qHTS; 0.63% of 310,000 active; Vaccinia virus mCherry reporter infection, fluorescence; about a quarter of the inactives have no number; Potency, µM (highest dose often 36.5 µM), for the others: at the top dose activity change, negative = inhibition, hits mostly inhibitors; active = well fitted inhibition curve with a large enough effect; inconclusive = small, poorly fitted or top-dose-only effect; inactive = no such curve, though single readings can be large or run the other way; tested in A549 cells; also: nearly all actives have a fitted effect of over 35% in size; inactives centre near -10
# Starred values were filed as active, the others as inactive; i = inactive; ? = inconclusive; . = no result given; & = joins results of further samples; [ ] = remark or other dose. % is scaled to controls: 0 for no effect and ±100 for the full control effect; potency is read from the fitted curve at half-maximal effect.
SMILES,VACV Venus inh,Vaccinia mCherry
COc1ccc(N2CC(NC(=O)c3c(F)cccc3Cl)CC2=O)cc1OC (centres undefined),-5%,7%
Cc1onc(-c2ccccc2)c1C(=O)c1ccccc1,-3%[7.34 µM],-25%[7.34 µM]
CCCNC(=O)Nc1cc(OCC)c(N2CCOCC2)cc1OCC,-3%,-12%
COc1c(C)cc(C(O)c2ncc(-c3cccc(F)c3)[nH]2)cc1C (centres undefined),-5%,18%
CCN1CCN(S(=O)(=O)c2ccc(Cl)c(C(=O)N(CC(C)C)C3CCS(=O)(=O)C3)c2)CC1 (centres undefined),-11%,-5%
CCc1c(CN2CCN(c3cccc(C)c3C)CC2)csc1C,-13%,-7%
O=C(OC1C2CCC1C1CN(CCc3ccccc3)CC12)c1ccccc1 (centres undefined),-30%,-23%
CCCS(=O)(=O)NC(=O)C1(C)CCCN(C(=O)C(C)(C)Oc2ccc(Cl)cc2)C1 (centres undefined),3%,26%
COC(=O)/C=C/c1cccc([C@H]2[C@@H]3C=CC[C@@H](C)[C@@H]3C(=O)N2Cc2ccccc2)c1,-7%,i
CCOc1ccc(C(=O)NCCC2=CCCCC2)cc1OCC,-4%,-5%
Cc1c(N(C)C(=O)C2CCCN2S(=O)(=O)c2ccccc2)c(=O)n(-c2ccccc2)n1C (centres undefined),3%,-10%
Cc1ccc2cccc(OCC(=O)N3CCc4ccccc43)c2n1,-6%,-3%
CCCCn1c(SCC(=O)N(CC)C2CCS(=O)(=O)C2)nnc1C(CC)N(C)C (centres undefined),-11%,-14%
COc1cc(-c2cc(NC(C)=O)c3ncc(-c4ccc(F)cc4)n3c2)cc(OC)c1OC,?,-6%
CCc1nc(SCC(=O)Nc2cc(OC)ccc2OC)c2c(C)c(C)sc2n1,-17%,i
CCc1nc(NCCN)c(C#N)c2c1CSC(C)(C)C2,-16%,-2%
COc1ccc(N2CCN(c3ncnc4scc(-c5ccccc5)c34)CC2)cc1,-3%,?
Cc1ccc(Nc2nc3ccccc3[nH]2)nc1,?,?
Cc1noc(C)c1COC(=O)c1ccc(S(=O)(=O)NCc2ccco2)cc1,-21%,.
CCOc1ccc(NC(=O)CN(C)C(=O)c2sc3ccccc3c2Cl)cc1OCC,-24%,i
Cc1cc(C)nc(Nc2ccccc2Cl)n1,-12%,-3%
COCC(COS(N)(=O)=O)Cc1ccccc1 (centres undefined),-8%,i
COc1ccc(CN2C(=O)C(CC(=O)NCCN3CCOCC3)CC(C(=O)N3CCOCC3)=C2C)cc1 (centres undefined),-4%,i
O=C(NCc1cccc(C(F)(F)F)c1)c1cccc(S(=O)(=O)N2CCN(Cc3ccccc3)CC2)c1,?,-16%
COC(=O)c1ccccc1NC(=O)CN(C)S(=O)(=O)c1cc(C)ccc1OC,-19%,.
Cc1noc(C)c1C(=O)N1CCOCC1,6%,.
CCOC(=O)c1cc(-c2ccccc2)sc1NC(=O)COC(=O)c1cccc(S(N)(=O)=O)c1,-23%,?
O=C(CSc1nc(=O)[nH]c2c1CCC2)Nc1cc(C(F)(F)F)ccc1Cl,-14%[7.34 µM],-9%[7.34 µM]
CCCCOC(=O)c1ccc(Nc2nnc(-n3nc(C)cc3C)c3ccccc23)cc1,-23%,-18%
CN(C(=O)Cc1c[nH]c2ccccc12)C(C(=O)Nc1ccc2c(c1)OCO2)c1ccccc1 (centres undefined),-17%,-21%
O=C(NCC1CCCO1)c1ccc(NC(=O)c2ccc(Br)cc2)cc1 (centres undefined),1%,i
COc1cc(-c2nnc(CSc3nnc(N)s3)o2)cc(OC)c1OC,-4%,-1%
O=S(=O)(Nc1cccc(S(=O)(=O)N2CCCCC2)c1)c1ccccc1F,-8%,-10%
Cn1cc(CCNCc2cn[nH]c2-c2ccc(-c3ccccc3)cc2)cn1,-13%,-21%
N#CCC(=O)Nc1ccc(C(=O)OCc2ccccc2Oc2ccccc2)cc1,-1%,?
CC(=O)N(CCCNC(=O)c1ccccc1)C(=O)c1ccccc1,-15%,i
CCOC(=O)Nc1ccc2c(c1)N(C(=O)CN(CC)CC)c1ccccc1C=C2,-14%,-13%
CC(=O)N1c2ccccc2N(Cc2ccc(C)cc2C)C(=O)C1(C)C,-17%,-24%
Cc1cc(=O)[nH]c(SCC(N)=O)c1C#N,-3%,.
COc1ccc(C2N=C(c3ccccc3)NC(c3ccccc3)=N2)cc1,-1%,-21%
Cc1sc(NC(=O)Cn2nc(C(F)(F)F)cc2C)c(C(=O)OC(C)C)c1C,-10%,.
CN1C(=O)c2ccccc2Sc2ccc(NC(=O)NCc3ccc(Cl)cc3)cc21,?,?
CC1(C)NC(=O)N(CCOCCSc2ccccc2)C1=O,-14%,i
CC(=O)OC(C)(C)/C=C/C(=O)[C@](C)(O)C1[C@H](O)C[C@@]2(C)C3CC=C4C(C[C@H](O)C(=O)C4(C)C)[C@]3(C)C(=O)C[C@]12C (some centres undefined),2.5µM*,0.5µM*
O=C(NNc1ccc([N+](=O)[O-])cn1)Nc1ccc(N=Nc2ccccc2)cc1,-20%,-4%
O=C(O)CSc1nnc(-c2cc3ccccc3o2)n1-c1ccccc1,-7%,.
COc1cccc(CNCCc2c[nH]c3ccccc23)c1OCc1ccccc1,?,-30%
COc1ccccc1OCCC(=O)OCC(=O)Nc1ccc2c(c1)OCO2,-9%,i

# Complete entries, quoted from the list.
# `O=C(NNc1ccc([N+](=O)[O-])cn1)Nc1ccc(N=Nc2ccccc2)cc1` is entered as VACV Venus inh = -20%; Vaccinia mCherry = -4%
# `CC(=O)OC(C)(C)/C=C/C(=O)[C@](C)(O)C1[C@H](O)C[C@@]2(C)C3CC=C4C(C[C@H](O)C(=O)C4(C)C)[C@]3(C)C(=O)C[C@]12C` (some centres undefined) is entered as VACV Venus inh = 2.5µM*; Vaccinia mCherry = 0.5µM*
# `O=C(O)CSc1nnc(-c2cc3ccccc3o2)n1-c1ccccc1` is entered as VACV Venus inh = -7%; Vaccinia mCherry = .

# Following part
SMILES,VACV Venus inh,Vaccinia mCherry
Cc1ccc(NC(=O)CCNC(=O)c2ccco2)cc1Cl,-19%,-14%
CCOC(=O)C(=CNc1ccc(Cl)cn1)C(=O)OCC,-24%,?
CCCCn1c(N)c(N(CCOC)C(=O)c2cc(-c3ccc(F)cc3)nc3ccccc23)c(=O)[nH]c1=O,6%,-7%
COc1ccc(NC(=O)c2cccc(S(=O)(=O)N3CCc4ccccc43)c2)c(OC)c1,-3%,-7%
Cc1ccc2c(c1)C(O)(CC(=O)c1cccc(-n3cccc3)c1)C(=O)N2 (centres undefined),-8%,-9%
CCOC(=O)Cc1ccc(NS(=O)(=O)c2ccc(SC)cc2)cc1,-27%,.
Nc1ccc(-c2ccccc2)cc1,-5%,-20%
COc1cc(OC)c(NC(=O)N2CC3CCCN3c3ccccc32)cc1Cl (centres undefined),-16%,-4%
O=C(O)[C@H]1CCCC[C@H]1C(=O)Nc1cc([N+](=O)[O-])ccc1F,-4%,-18%
CC(C)C(=O)NC(NC(=S)Nc1ccc(S(N)(=O)=O)cc1)C(Cl)(Cl)Cl (centres undefined),-6%,-8%
Cc1ccc(CNc2nc(NCC3CC3)nc3ccsc23)c(C)c1,-26%,-21%
O=C(CSc1nc2cc(Cl)ccc2s1)NC1CCCc2ccccc21 (centres undefined),-16%,i
O=C(COc1ccccc1)N1CCc2ccccc2C1,-11%,-19%
COC(=O)Nc1nnc(/C=C/c2ccccc2)s1,-13%,i
O=C(O)CCn1c(=O)[nH]c2ccccc2c1=O,-7%,-14%
CCOc1ccccc1NC(=O)Cc1noc2ccc(C)cc12,-14%,-9%
O=c1cc(/N=C/c2coc3cc(Br)ccc3c2=O)[nH]c(=S)[nH]1,-15%,-21%
COC(=O)Cc1ccc(NC(=S)N2CCN(c3cccc(O)c3)CC2)cc1,-8%,-11%
Cc1cc(Cl)c(S(=O)(=O)NCc2cccnc2)cc1OCC(N)=O,-3%,-12%
CCCCN(C)CCCNC(=O)CC1Oc2ccccc2NC1=O (centres undefined),-7%,-1%
CC(NCc1ccc2c(c1)OCO2)c1ccccc1 (centres undefined),-13%,?
Cn1c(=O)cc(SCC(=O)NCCC2=CCCCC2)c2cc(Cl)ccc21,1%,-11%
CC(C)[C@H](NC(=O)c1ccco1)C(=O)OCC(=O)N1CC(=O)Nc2ccccc21,-10%,-25%
COCC(=O)Nc1cc(Cl)ccc1C,0%,-11%

# Another view of 3 compounds above.
> Cn1c(=O)cc(SCC(=O)NCCC2=CCCCC2)c2cc(Cl)ccc21
  VACV Venus inh = 1%
  Vaccinia mCherry = -11%
> CC(C)[C@H](NC(=O)c1ccco1)C(=O)OCC(=O)N1CC(=O)Nc2ccccc21
  VACV Venus inh = -10%
  Vaccinia mCherry = -25%
> COCC(=O)Nc1cc(Cl)ccc1C
  VACV Venus inh = 0%
  Vaccinia mCherry = -11%

# Additional results.
SMILES,VACV Venus inh,Vaccinia mCherry
CCc1ccccc1Nc1nn2c(=O)c3ccc(C(=O)NCCc4ccccc4)cc3nc2s1,-6%,-13%
Cn1cc(S(=O)(=O)N2CCCC(C(=O)O)C2)cn1 (centres undefined),7%,8%
C=CCNC(=O)Nc1ccc2nc(C)sc2c1,-1%,i
CC(=O)Nc1ccc(NC(=O)c2cc(S(=O)(=O)N3CCCCC3)ccc2N2CCOCC2)cc1,-3%,-10%
COc1ccc(C)cc1-n1cnc2cc(C(=O)NC3CCCCCC3)ccc21,-5%,-7%
O=c1[nH]c2ccc(NC(=S)Nc3ccc(F)cc3)cc2[nH]1,1%,i
COc1ccc2oc(=O)c(C(=O)NCc3ccccn3)cc2c1,-9%,.
COc1ccc2nc(SCC(=O)/C(C#N)=C(\C)N)[nH]c2c1,0%,i
O=C(Nc1ccc(Cl)cc1)c1ccc(Br)cc1F,-19%,11%
NC(=O)c1nsc(C(=O)N(CC(=O)NCc2ccccc2)c2ccc(F)cc2)c1N,-6%,-25%
CS(=O)(=O)N(CC(=O)NCC1CCCO1)Cc1ccc(Cl)cc1 (centres undefined),-10%,-18%
CN(C)CCOC(c1ccc(Cl)cc1)c1ccccn1 (centres undefined),-12%&-13%&-15%,-15%
CC(C)(C)S(=O)N1Cc2cc(C(=O)NCc3ccc(Oc4ccccc4)cc3)nc(-c3cccc(-c4cc5ccccc5o4)c3)c2[C@H]1CCO (some centres undefined),-9%,6%
Cc1ccc(C)c(N(CC(=O)NCCSCc2ccco2)S(C)(=O)=O)c1,-3%,-14%[1.46 µM]
COc1cc(C=C2C(=O)OC(C)(C)OC2=O)ccc1OCC(=O)Nc1ccccc1,2%,i
Cc1ccc(NC(=O)c2cc3c(=O)n(Cc4cccnc4)ccc3nc2C)cc1F,-21%,-13%
COc1ccc(-c2[nH]ncc2/C=N\NS(=O)(=O)c2ccc(Cl)cc2)cc1,-13%,.
CC(C)(Cc1ccccc1)NC(=O)C(=O)c1cn(CC(=O)N2CCOCC2)c2ccccc12,-17%,i
COc1cc(C=O)ccc1OCC(=O)N1CCOCC1,-21%,-4%
Fc1ccc(C2=CCN(C(c3ccc(Cl)cc3)c3nnnn3Cc3ccccc3)CC2)cc1 (centres undefined),-18%,-24%
Cc1c(N(C)C(=O)c2ccccc2F)c(=O)n(-c2ccccc2)n1C,0%,-12%
O/N=C/c1cn(-c2ccc(Cl)cc2)nn1,-16%,i
CCN(CC)CCSc1nnc2c3cc(F)ccc3n(C)c2n1,-6%,3%
CS(=O)(=O)N(CC(=O)Nc1ccccc1C(=O)NCc1ccccc1)c1ccc2c(c1)OCCO2,-13%,-3%
CN(C)S(=O)(=O)N1CCC(CO)(Cc2cccc(C(F)(F)F)c2)CC1,-14%,-20%
O=C(CCn1nc(-c2ccccc2)c2ccccc2c1=O)Nc1cccnc1,-4%,-13%
CCOc1ccc(N(C(=O)CNC(=O)c2ccco2)C(C(=O)NC2CCCC2)c2ccco2)cc1 (centres undefined),-18%,-17%
Cc1ccccc1NC(=O)Cc1nc(COC(=O)CCOc2ccccc2)cs1,-14%,-2%
Cn1c(=O)c2c(-c3ccccc3)n(-c3cccc(Br)c3)cc2n(C)c1=O,-6%,-3%
COc1cc(OC)c(NC(=O)c2oc3ccc4c(c3c2C)C(=O)CC(C)(C)O4)cc1Cl,-13%,-15%
Cc1c(Cl)cccc1NC(=O)CCCn1nc([N+](=O)[O-])cc1C,-21%,-4%
Brc1ccc(/C=N/Nc2ccc3ccccc3n2)cc1,-8%,-17%
CCOC(=O)C1CCN(S(=O)(=O)c2nc3nc(C)cc(C)n3n2)CC1,-1%,-5%
O=C1O[C@H]([C@@H](O)CO)C(O)=C1O,-5%,i
CC(C)n1c(SCC(=O)c2ccc(F)cc2)nc2c(sc3ccccc32)c1=O,-12%,-14%
CCOc1ccccc1NC(=O)Cn1c(=O)n(-c2ccc(C)c(C)c2)c(=O)c2c(C)c(C(=O)N(C)C)sc21,-1%,1%
CC(=O)c1cccc(OCc2cc(C(=O)N(C)Cc3cnccn3)no2)c1,-2%,i
O=C(Nc1ccc2c(c1)OCCO2)C1CC(c2ccccc2Cl)=NO1 (centres undefined),-19%,i

# High-throughput results deposited in PubChem by National Center for Advancing Translational Sciences (NCATS).
